High-throughput results as filed in PubChem BioAssay.
fixLJ activator: increases Burkholderia fixLJ two-component signaling | B. multivorans fixK-promoter GFP reporter, 18 h; hits give high values | AID 1918990 | 29,000 tested, 0.3% active | z-score (test concentration not listed);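 active = replicate mean overnight rise in green fluorescent reporter signal, 3 or more SD over negative controls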;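 also: score is relative to vehicle wells of the plate; 300 nL library stock went into each well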
* hit, by the source's call. Not all compounds are listed; the hit share may differ from the screen's.

SMILES	fixLJ activator
CCCOc1ccccc1C(=O)Nc1ccc(-c2nc3ccc(C)cc3s2)cc1	-1.2
O=C(C1CCN(c2nc(-c3ccccc3)nc3c2CCC3)CC1)N1CCNCC1	-0.42
Cc1ccc(NCc2cccn2-c2nnc(N3CCC(C(=O)NCCc4ccc(Cl)cc4)CC3)s2)cc1	0.1
CCc1ccc2occ(CC(=O)N(Cc3ccc(N(C)C)cc3)C3CCS(=O)(=O)C3)c2c1 (configuration not stated)	-0.17
CC(=O)c1[nH]c(C)c(C(=O)NCc2noc(-c3ccco3)n2)c1C	0.05
CCOc1ccccc1C(=O)N(Cc1ccccc1F)C1CCS(=O)(=O)C1 (configuration not stated)	-0.95
Cc1cn2c(=O)cc(COc3cc(C)c(Cl)c(C)c3)nc2s1	-0.24
CC1CCCCN1CC(=O)N1CCCc2c1c(=O)oc1ccc(OCc3ccccc3)cc21 (configuration not stated)	-0.15
Cn1nnnc1SCC1=C(C(=O)O)N2C(=O)C(NC(=O)C(O)c3ccccc3)C2SC1 (configuration not stated)	-0.7
C#CCn1c(/C=C/c2ccc(Cl)cc2)nc2ccccc21	-2.6
Cc1ccccc1Cc1c(C)nc2nc(SCC(=O)NCCc3ccc(Cl)cc3)nn2c1C	-0.12
CCOC(=O)c1cccc(NC(=O)Cn2ncc3c4ccccc4n(Cc4ccccc4)c3c2=O)c1	-2.7
COc1cc(/C=C/c2nc(C#N)c(NCCc3ccccc3)o2)cc(OC)c1OC	1.3
CCCSc1ccccc1NC(=O)NCc1cn2c(n1)SCC2	-1.4
Cc1cccc2cc(-c3nccn3CC3CCN(C)CC3)c(=O)[nH]c12	1.9
CC1(C)S[C@@H]2C(N3C(=O)[C@@H](c4ccccc4)NC3(C)C)C(=O)N2[C@H]1C(=O)O (some centres not stated)	0.58
COc1ccc(CN2CCC(Oc3cccnc3)CC2)cc1C(=O)O	0.11
COCCCCN1CCN(C(=O)c2cnc(-c3ccccc3)[nH]c2=O)CC1	-0.1
Cc1ccc(CNC(=O)c2cn(C)c3ccc(S(=O)(=O)N(C)C4CCCCC4)cc3c2=O)cc1	-2.2
Cc1ccccc1-c1noc(CSc2nnc(Cc3ccccc3)n2-c2ccc(F)cc2)n1	-1.9
COc1ccc(CNC(=O)CN(c2ccc(C)cc2)S(=O)(=O)c2c(C)noc2C)cc1	-1.4
O=C(CCN1CCCCO1)N1CCCC1c1nc(-c2ccccc2)no1 (configuration not stated)	-0.52
Cc1nnnn1CCC(=O)NC1CC(c2cc(=O)[nH]c(C3CC3)n2)C1 (configuration not stated)	0.4
COc1ccc(-c2cc(-c3ccccc3)nc3c2COc2ccc(F)cc2-3)cc1	0.15
Cc1ccc(NS(=O)(=O)c2ccc3nc(-c4ccccc4)[nH]c3c2)c(Br)c1	0.99

An excerpt of these results, as labelled records.
> CCc1ccc2occ(CC(=O)N(Cc3ccc(N(C)C)cc3)C3CCS(=O)(=O)C3)c2c1 (configuration not stated)
  fixLJ activator = -0.17
> Cc1cn2c(=O)cc(COc3cc(C)c(Cl)c(C)c3)nc2s1
  fixLJ activator = -0.24
> CC1CCCCN1CC(=O)N1CCCc2c1c(=O)oc1ccc(OCc3ccccc3)cc21 (configuration not stated)
  fixLJ activator = -0.15

More structures.
SMILES	fixLJ activator
CCCC(CCC)C(=O)N1CCC[C@@]2(CN(C(=O)COC)CCC2O)C1 (some centres not stated)	-1.1
Cc1ccc(NC(=O)Cn2c(=O)n(CCC(=O)N3CCc4ccccc4C3)c(=O)c3ccccc32)cc1	-1.5
CCCCCSc1nc2sc3c(c2c(=O)n1-c1ccc(OC)cc1)CCN(C(C)=O)C3	-0.16
COCCNC(=O)CCSc1nc(-c2ccc(OC)cc2)cc(C(F)(F)F)n1	-1
COC(=O)c1c(C)oc2ccc(N(C(=O)Oc3ccccc3)S(=O)(=O)c3ccc(C(C)(C)C)cc3)cc12	-0.04
CCOc1c(CNCCSc2nnnn2C)cccc1OC	-1.2
Cc1ccccc1C(=O)Nc1ccc2nc(N3CCCCC3)cc(C)c2c1	-0.96
Cc1cc(NC(=O)c2ccccc2Cl)ccc1NC(=O)c1ccccc1	1.7
Cn1c(=O)c(=O)n(C)c2cc(S(=O)(=O)N3CCN(c4ccccc4)CC3)ccc21	0.39
CCCCN(Cc1ccccc1)C(=O)CN(C)S(=O)(=O)c1ccc2c(c1)c(=O)n(C)c(=O)n2C	0.26
CCc1ccccc1N1CC(c2nc3ccccc3n2CCC2CCCCC2)CC1=O (configuration not stated)	-2.1
Cc1c(Cl)cccc1-c1ccc(CNCCSc2nnnn2-c2ccccc2)o1	-1.4
COc1ccc(Cn2c(CCC(=O)Nc3ccc(C)c(C)c3)nc3cccnc32)cc1	-0.27
CCOCCN1CCC(O)[C@]2(CCCN(C(=O)C(CC)CC)C2)C1 (some centres not stated)	-0.38
Cc1ccc(OCC(=O)Nc2ccc3nn(-c4ccc(C)cc4)nc3c2)cc1	-2
O=C1NCN(c2ccccc2)C12CCN(CC1COc3ccccc3O1)CC2 (configuration not stated)	-1.4
Fc1ccc(Cn2ncc3c2CN(c2cc(N4CCOCC4)ncn2)C3)cc1	-0.56
COc1cc(NC(=O)N2CCC3(CN(C)C(=O)O3)C2)cc(OC)c1 (configuration not stated)	1
COC(=O)CNC(=O)C(Cc1ccccc1)NS(=O)(=O)c1ccc2c(c1)c(=O)n(C)c(=O)n2C (configuration not stated)	-1.7
O=C(CN1CCCCC1)NC1COCC1Cc1ccnc2ccccc12 (configuration not stated)	-0.81
Cc1cc(C)n(-c2nc3ccccc3nc2Nc2cc(Cl)ccc2C)n1	0.71
Cc1ccc2oc(=O)n(CCC(=O)NCc3cnn4cccnc34)c2c1	-1.6
FC(F)(F)c1cccc(N2CCN(Cc3nnc(-c4ccc5c(c4)OCO5)o3)CC2)c1	-0.32
COc1cccc(NC(=O)CSc2nc3c(oc4ccccc43)c(=O)n2Cc2ccco2)c1	-1.5
Cc1ccc(-n2nc(-c3ccc(F)cc3)c3cnc4cc5c(cc4c32)OCO5)cc1C	-0.25
The list goes on:
SMILES	fixLJ activator
CCC(C(=O)NCc1ccc2c(c1)nc(C)n2C)n1cccn1 (configuration not stated)	0.19
Cn1c(=O)oc2cc(S(=O)(=O)Nc3ccc(C(=O)O)cc3)ccc21	-1.6
Cc1ccc2cccc(NC(=O)COc3cc(C)c(Cl)c(C)c3)c2n1	-2.9
CCc1cc(C(=O)NCc2ccccc2)no1	-1.1
Cc1ccc(-c2nc3n(n2)C(c2ccccc2C)C=C(c2ccc(Cl)cc2)N3)cc1 (configuration not stated)	1.8
Cc1n[nH]c(C)c1S(=O)(=O)N(CC(=O)NC(C)c1ccccc1)c1ccc(C(C)C)cc1 (configuration not stated)	-1.9
CC1CCc2c(sc(NC(=O)c3cc4nc(-c5ccc(Cl)cc5)cc(C(F)(F)F)n4n3)c2C#N)C1 (configuration not stated)	0.46
Fc1ccc(CN2CCC3(C2)Cn2c(nnc2-c2ccco2)CO3)cc1F (configuration not stated)	-0.19
CCCOc1ccc(-c2cc(C(F)(F)F)c(C#N)c(SCCC(=O)O)n2)cc1	-5.5
COc1ccc(C(=O)N2CCCC3(CCc4cn[nH]c43)C2)cc1C (configuration not stated)	-0.49
CC(C)c1nc(N2CCCC(CO)(Cc3cccc(Cl)c3)C2)no1 (configuration not stated)	-0.03
Cc1cccc2cc(C(=O)NCc3nc(-c4cnccn4)n[nH]3)oc12	1
Cc1ccc(NC(=O)c2c(C)oc3ccc(O)c(CN(C)Cc4ccccc4)c23)c(C)c1	-0.18
CCCNC(=O)C(Cc1ccccc1)NS(=O)(=O)c1ccc2c(c1)c(=O)n(C)c(=O)n2C (configuration not stated)	0.09
CCOC(=O)c1cnc2ccccc2c1Nc1ccc(N2CCOCC2)cc1	-1.3
CCn1c2ccccc2c2cc(CN3CCN(Cc4ccc(OC)c(OC)c4)CC3)ccc21	-2.7
COc1cccc(CN2CCN(c3nccc(N4CCCC(O)C4)n3)CC2=O)c1 (configuration not stated)	-0.23
CCN(CC)C(=O)Cn1c(=O)n(-c2ccc(C)c(C)c2)c(=O)c2c3c(sc21)CCCCC3	-0.92
Cc1nc(C)c(C(=O)N2CC3CCC2CN(C(=O)C2CCC2)C3)s1 (configuration not stated)	-3.6
Cc1ccc2c(c1)c1c3n2CCN(C(=O)c2cccc(C(F)(F)F)c2)C3CCC1 (configuration not stated)	-0.65
CN(Cc1nnc(-c2ccccc2)o1)C(=O)CCNS(C)(=O)=O	-0.74
Cc1ccccc1C1(CC(=O)NCCc2nn[nH]n2)CCOC(C)(C)C1 (configuration not stated)	0.41
Cc1ccc(C(=O)N2Cc3cnc(C(C)(C)C)nc3C2)n1C(F)F	-2.2
CN1CCC(CCC(=O)NC2COCC2Cc2ccncc2)CC1 (configuration not stated)	0.48
CSc1ccc(CNC(=O)Cc2csc3ccccc23)cc1	-0.09

Some of the entries above in a different format.
canonical_smiles,fixLJ activator
Cn1c(=O)oc2cc(S(=O)(=O)Nc3ccc(C(=O)O)cc3)ccc21,-1.6
Fc1ccc(CN2CCC3(C2)Cn2c(nnc2-c2ccco2)CO3)cc1F (configuration not stated),-0.19

The list continues.
SMILES	fixLJ activator
Cn1cnnc1Sc1ccc(CN2CCCN(S(=O)(=O)N3CCCC3)CC2)o1	1
Cc1cc(C)c2nc(C)cc(Nc3cccc(C(=O)O)c3)c2c1	0.59
CN1CCN(C(=O)Nc2cccc(Cl)c2)c2cccnc21	1.1
Cc1ccc(-n2c(=O)c3c(C)c(C)sc3n(CC(=O)NCc3ccccc3)c2=O)cc1C	0.33
CC(C)n1cc(CN2CCCn3nc(CNC(=O)C4CCC4)cc3C2)cn1	-0.06
CCCn1cc(CN2CCn3nc(C(O)CO)cc3C2)c(C)n1 (configuration not stated)	-0.79
CCn1c(CNC(=O)c2ccc(OC)cc2)nnc1SCC(=O)Nc1ccc(F)cc1	0.68
CCC(C)NC(=O)Cn1c(=O)n(-c2ccc(C)cc2)c(=O)c2ccccc21 (configuration not stated)	-0.66
COC(=O)c1nnn(CC(=O)Nc2c(C)cccc2C)c1N	0.61
Cc1ccc(NC(=O)C2CCC(CNS(=O)(=O)c3cccc4nsnc34)CC2)c(Cl)c1 (configuration not stated)	-1.5
COc1ccc(CCNC(=O)c2ccc3c(Cl)c4c(nc3c2)CCCC4)c(OC)c1	0.73
COc1cccc(NC(=O)CSc2nc3cc(OC)c(OC)cc3c3nc(-c4ccccc4)nn23)c1	0.19
COc1cccc(OCc2nc3ccccc3n2CCOc2ccc(C)cc2)c1	0.52
COc1ccc(NC(=O)c2sc3nc(C)c(C(=O)Nc4ccc(C)cc4C)c(-c4ccc(C)o4)c3c2N)cc1	-2.5
Cc1ccc(C)c(Cn2c(=O)n(-c3ccccc3)c(=O)c3c4c(sc32)CCCC4)c1	-0.33
CN(C)c1ccc(CN(Cc2ccco2)C(=O)c2ccc(F)cc2)cc1	-0.37
CCc1ccc(NC(=O)c2sc3nc(C)c(Cl)c(C)c3c2N)cc1	-1.5
CCOc1ccc(NC(C)=O)cc1	-0.73
O=C(COc1cccc(Cl)c1)NC1CC(c2nnc(CO)n2C2CC2)C1 (configuration not stated)	-0.87
Cc1ccc2oc(-c3cc(NC(=O)/C=C/c4ccco4)ccc3Cl)nc2c1	-1.6
COCCc1noc(-c2cn(Cc3ccc(F)cc3)nn2)n1	-2.9
COc1ccc(OC)c(NC(=O)Cc2coc3ccc(C(C)C)cc23)c1	-1.7
NC(=O)CSc1oc(-c2ccco2)nc1S(=O)(=O)c1ccc(Cl)cc1	-0.62
CC(C)CN(CCNC(=O)c1cn(C)c2ccc(S(=O)(=O)N3CCOCC3)cc2c1=O)CC(C)C	-1.4
COC(=O)c1cc2occc2n1Cc1nc(-c2ccccc2)oc1C	-1.3
(further entries)
SMILES	fixLJ activator
COc1ccccc1NC(=O)c1cc2c([nH]c1=O)CC(C)(C)CC2=O	0.42
CCCn1nc(C)c(CNC(=O)Nc2cnn(Cc3ccccc3F)c2)c1C	-0.43
COc1ccccc1CCC(=O)N1CCC2OCc3cnnn3C2C1 (configuration not stated)	-0.92
COc1ccc(N(CC(=O)Nc2cc(Cl)ccc2C)S(=O)(=O)c2c(C)noc2C)cc1	-1.8
O=C(C1CC1)N1CCc2cc(Br)cc(S(=O)(=O)N3CCN(c4cccc(C(F)(F)F)c4)CC3)c21	-0.47
CC1CCN(C(=O)COc2ccccc2CN2CC3CC(O)CC3C2)CC1 (configuration not stated)	-0.36
CCSc1ncc(Cl)c(C(=O)Nc2ccc(S(=O)(=O)Nc3ncccn3)cc2)n1	-1.2
COc1ccc(C(=O)c2oc3ccccc3c2NC(=O)c2cccc(OC)c2)cc1	-0.96
CCC(=O)N1CCc2cc(Br)cc(S(=O)(=O)CCC(=O)Nc3ccccc3C)c21	-0.9
CCC(C(=O)NC1CCCCC1)n1c(SCc2cccc(C)c2)nc2ccncc21 (configuration not stated)	-1.1
Cc1cc(F)ccc1S(=O)(=O)N1CC(c2ccncc2)C1	-0.01
O=C(C1CC1)N1CCc2cc(Br)cc(S(=O)(=O)Nc3ccc(C(F)(F)F)cc3)c21	-0.03
COc1ccc(OC)c(-c2nc(CN3CCC4(CC3)CNC(=O)O4)c(C)o2)c1	0.14
CC(C)c1ccc(NC(=O)c2cccc3c2C(=O)N(C2CCCCC2)C3)cc1	-0.55

6 of the compounds above, bar-delimited.
smiles | fixLJ activator
CC1CCN(C(=O)COc2ccccc2CN2CC3CC(O)CC3C2)CC1 (configuration not stated) | -0.36
COc1ccccc1NC(=O)c1cc2c([nH]c1=O)CC(C)(C)CC2=O | 0.42
CCCn1nc(C)c(CNC(=O)Nc2cnn(Cc3ccccc3F)c2)c1C | -0.43
COc1ccc(N(CC(=O)Nc2cc(Cl)ccc2C)S(=O)(=O)c2c(C)noc2C)cc1 | -1.8
O=C(C1CC1)N1CCc2cc(Br)cc(S(=O)(=O)Nc3ccc(C(F)(F)F)cc3)c21 | -0.03
Cc1cc(F)ccc1S(=O)(=O)N1CC(c2ccncc2)C1 | -0.01
